# 2A firefly: lowers the firefly signal of an FMDV 2A StopGo reporter. HEK cells with a luciferase reporter of 2A StopGo recoding. AID 1745856. Potency, µM (top dose mostly 57.5 µM), for inactives: at the highest dose signal change, negative = less light. 120,000 tested, 0.23% active; active = well fitted falling curve with a large enough effect; inconclusive = small, poorly fitted or top-dose-only effect; inactive = no such curve, though single readings can be large or run the other way; also: nearly all actives have a fitted effect of over 60% in size; overnight with compound
# StopGo RLuc: lowers the Renilla signal of an FMDV 2A StopGo reporter. HEK cells with a luciferase reporter of 2A StopGo recoding. Potency, µM (titrated, usually from 57.5 µM), for the others: top-dose signal change, negative = less light. 120,000 tested, 0.32% active. AID 1745857; active means well fitted falling curve with a large enough effect; inconclusive means small, poorly fitted or top-dose-only effect; inactive means no such curve, though single readings can be large or run the other way; also: nearly all actives have a fitted effect of over 55% in size; overnight with compound
# Starred values were filed as active, the others as inactive; u = inconclusive; & = joins results of further samples; [ ] = dose if it differs, or a comment. % is scaled to controls: 0 for no effect and ±100 for the full control effect; potency is read from the fitted curve at half-maximal effect.
SMILES,2A firefly,StopGo RLuc
Cc1ccc(NC(=O)CCNC(=O)c2ccccc2)cc1S(=O)(=O)N1CCCCC1,-28%,-7%
Cc1c(C(N)=O)[n+](=O)c2ccccc2n1[O-],5%,10%
Brc1ccc(C2=Nn3c(nnc3-c3ccc4c(c3)OCO4)SC2)cc1,23%,22%
Cc1cccc(CSc2nc3c(sc4ccccc43)c(=O)n2CCC(=O)NC(C)C)c1,21%,-8%
CCN1CCN(CCOc2ccc3c(=O)c(-c4ccc(Cl)cc4)c(C)oc3c2)CC1,15%,-13%
CCOc1ccc(C2CCCN2Cc2cc(=O)oc3cc(C)ccc23)cc1 (stereo not drawn),13%,12%
COc1cccc(Cn2nnc3c(=O)[nH]c(C4CCN(C(=O)c5ccccc5)CC4)nc32)c1,0%,-8%
CN(CC(=O)NC(C)(C)C)C(=O)c1cc2ccccc2oc1=O,0%,1%
O=C(COC(=O)c1ccc(F)c([N+](=O)[O-])c1)Nc1ccc2c(c1)OC1(CCCCC1)O2,44%[activator],-11%[1.06 µM]
CCOC(=O)N1CCN(c2nc3ccccc3nc2C(C#N)C(=O)NC2CCCCC2)CC1 (stereo not drawn),16%,3%
CCOc1cc2ccccc2cc1C(=O)O,2%,-3%
CCOc1ccc(NC(=O)Cn2cc(C(=O)c3ccc(F)cc3)c(=O)c3cc4c(cc32)OCO4)cc1,17%,1%
COc1cccc(C(=O)NCc2ccccc2)c1,92%[activator],16%[1.06 µM]
O=C(Nc1c(NC2CCCC2)c2ccccc2oc1=O)c1cccc(Cl)c1,-2%,-4%
CCCCc1ccc(NC(=O)c2cc3c(s2)CCCC3)cc1,-2%,u
CCOC(=O)C1=C(C)NC(=O)CC1c1ccccc1F (stereo not drawn),12%,2%
COC(=O)c1c(NC(=O)CN2CCN(C(=O)C3CCCO3)CC2)sc2c1CCC2 (stereo not drawn),-12%,-20%
Cc1cccn2c(=O)c3cc(C(=O)NCC(C)C)sc3nc12,6%,-9%
CN(CC(=O)N1CCN(CC(=O)NC(C)(C)C)CC1)c1nc(C(F)(F)F)nc2ccccc12,19%,25%
C=CCC(C)(NCc1ccccc1)c1cccs1 (stereo not drawn),u,-2%
CC(=O)c1ccc(N2CCN(c3ccc4cc(S(=O)(=O)N5CCC(C)CC5)ccc4n3)CC2)cc1,0%,0%
O=C(Cn1c(=O)n(-c2ccccc2)c(=O)c2c3c(sc21)CCC3)c1ccc(Br)cc1,-9%,-17%
COc1cccc(C(=O)N2CCC(C(=O)c3ccc4c(c3)OCCO4)CC2)c1OC,-25%,-16%
COc1ccccc1CN1COc2ccc3c(C)cc(=O)oc3c2C1,-6%,-1%
Cc1ccccc1Nc1nc(-c2cccnc2)nc2ccccc12,-2%,0%
# Next compounds:
SMILES,2A firefly,StopGo RLuc
CCOc1ccc2nc(NC(=O)c3cccn(Cc4ccccc4)c3=O)sc2c1,36%[activator],14%
CCOC(=O)c1scc(-c2ccccc2)c1S(=O)(=O)N1CCN(c2ccc(Cl)cc2)CC1,-13%,67%[activator]
Cc1nc2ccccc2nc1SC(C)C(=O)N(C)C (stereo not drawn),-1%,-6%
CCOCCCNc1nc2c(c(=O)n(C)c(=O)n2C)n1Cc1ccc(Cl)c(Cl)c1,2%,-3%
N#CC1(C(=O)Nc2ccc(C(=O)Nc3ccccc3)cc2)CCCC1,193%[activator],-11%[1.06 µM]
COC(=O)C1(NC(=O)c2ccc(Cl)c(Cl)c2)CCCCC1,12%,10%
C[C@@H](O)[C@H]1C(=O)N2C(C(=O)O)=C([C@H]3CCCO3)S[C@H]12,-16%[11.5 µM],-5%
CN(CCOc1ccc(F)cc1)c1nc(-c2cccnc2)nc2ccccc12,-8%,-8%
CCCCCn1nc(C(=O)OCC(=O)NCC(F)(F)F)c2ccccc2c1=O,-5%,-6%
O=C(CNC(c1ccccc1)(c1ccccc1)c1ccccc1)c1c[nH]c2ccccc12,9%,-8%
CC(C)CNC(=O)CN1CCN(c2cccc(Cl)c2C#N)CC1,7%,14%
Cc1cc(Cl)ccc1OCc1cc(=O)n2c3c(sc2n1)CCCC3,-12%,0%
CCOc1ccc(NC(=O)N2CCC3(CC2)c2cccn2-c2ccc(C)cc2N3CC)cc1,-5%,-2%
Cc1ccc(CN2C(=O)C3(c4ccccc42)N(c2cccc(C(F)(F)F)c2)C(=O)CS3(=O)=O)cc1 (stereo not drawn),0%,2%
COc1cc2nc(NCC(C)c3ccccc3)n3nc(-c4ccccc4)nc3c2cc1OC (stereo not drawn),-5%,-1%
CCc1ccc(OCCCn2c(-c3ccc(Cl)cc3)nc3ccccc3c2=O)cc1,3%,-4%
CCOC(=O)c1sc2cccc(F)c2c1S(=O)(=O)N1CCN(c2cccc(Cl)c2)CC1,-11%,-10%
Cc1ccc(SCc2cc(=O)[nH]c(N3CCN(c4cccc(C(F)(F)F)c4)CC3)n2)cc1,1%,1%
COc1ccc(OC)c(NC(=O)c2ncoc2-c2ccc(C)o2)c1,21%,-3%
Cc1cc(CS(=O)(=O)CC(=O)NC2CCCCCC2)no1,-10%,-13%
COc1ccc(NC(=O)CC2Nc3ccccc3NC2=O)cc1 (stereo not drawn),0%,0%
Cc1ccc(C)c(-c2csc(Nc3ccc(S(=O)(=O)Nc4nc(C)cc(C)n4)cc3)n2)c1,-20%,62%[activator]
CCOc1ccc(C(=O)Nc2ccc3oc(-c4ccc(C)cc4C)nc3c2)cc1Br,56%[activator],16%
Cc1c(C)n(C)c2ccc(C(=O)NCc3cccc(F)c3)cc12,-6%,60%[activator]
CC(C)(C)c1ccccc1NC(=O)CCc1c[nH]c2ccccc12,-13%,8%

# Reformatted with values under each structure: 14 of the compounds above.
# Screens in order: 2A firefly	StopGo RLuc
Cc1cc(Cl)ccc1OCc1cc(=O)n2c3c(sc2n1)CCCC3
 : -12%	0%
CCOc1ccc(NC(=O)N2CCC3(CC2)c2cccn2-c2ccc(C)cc2N3CC)cc1
 : -5%	-2%
Cc1ccc(CN2C(=O)C3(c4ccccc42)N(c2cccc(C(F)(F)F)c2)C(=O)CS3(=O)=O)cc1 (stereo not drawn)
 : 0%	2%
COc1cc2nc(NCC(C)c3ccccc3)n3nc(-c4ccccc4)nc3c2cc1OC (stereo not drawn)
 : -5%	-1%
CCc1ccc(OCCCn2c(-c3ccc(Cl)cc3)nc3ccccc3c2=O)cc1
 : 3%	-4%
CCOC(=O)c1sc2cccc(F)c2c1S(=O)(=O)N1CCN(c2cccc(Cl)c2)CC1
 : -11%	-10%
Cc1ccc(SCc2cc(=O)[nH]c(N3CCN(c4cccc(C(F)(F)F)c4)CC3)n2)cc1
 : 1%	1%
COc1ccc(OC)c(NC(=O)c2ncoc2-c2ccc(C)o2)c1
 : 21%	-3%
Cc1cc(CS(=O)(=O)CC(=O)NC2CCCCCC2)no1
 : -10%	-13%
COc1ccc(NC(=O)CC2Nc3ccccc3NC2=O)cc1 (stereo not drawn)
 : 0%	0%
Cc1ccc(C)c(-c2csc(Nc3ccc(S(=O)(=O)Nc4nc(C)cc(C)n4)cc3)n2)c1
 : -20%	62%[activator]
CCOc1ccc(C(=O)Nc2ccc3oc(-c4ccc(C)cc4C)nc3c2)cc1Br
 : 56%[activator]	16%
Cc1c(C)n(C)c2ccc(C(=O)NCc3cccc(F)c3)cc12
 : -6%	60%[activator]
CC(C)(C)c1ccccc1NC(=O)CCc1c[nH]c2ccccc12
 : -13%	8%

# (next part)
SMILES,2A firefly,StopGo RLuc
COc1cc(OC)c(NC(=O)Cn2c(=O)c(C(F)(F)F)nc3ccccc32)cc1Cl,-11%,-10%
O=C(c1ccc(CSc2nc3ccncc3n2Cc2cccc(F)c2)cc1)N1CCCCCC1,-17%,17%
O=C(Cc1c[nH]c2ccccc12)NC1CCCCCC1,85%[activator],43%[activator]
CC(C(=O)Nc1ccc(F)cc1F)N1CCN(c2ccc([N+](=O)[O-])c3cnccc23)CC1 (stereo not drawn),-10%,-12%
COc1ccccc1NC(=O)Cn1c(SCC(=O)N(C)c2ccccc2)nc2ccccc21,6%,67%[activator]
O=C(O)CCC(=O)OCCCc1ccccc1,5%,-1%
CC(C)NC(=O)C(=O)Nc1ccc2c(c1)N(C)C(=O)CO2,10%,-11%
COc1ccc(NC(=O)CCCN2C(=O)CCn3nc(-c4cn(C)c5ccccc45)cc32)cc1,-1%,1%
Cc1nc2c(c(C)c1CCC(=O)NCc1ccccc1)c(=O)n(C)c(=O)n2C,-12%,-7%
CCNC(=O)COc1ncnc2c(Cl)cc(Cl)cc12,-13%,-13%
Cc1ccc(-c2cc(C)c(C)cc2C)nc1,9%,2%
O=S1(=O)CC=C(CBr)C1,-1%,-2%
CCOC(=O)c1cccc(NC(=O)C2=Cc3ccccc3OC=C2)c1,46%[activator],13%
Cc1ccc2oc(=O)c(-c3nc(-c4cccs4)no3)cc2c1,28%&20%,11%&-10%
COc1ccc(CCN2C(=O)CN(C3CCCCCC3)C(=O)C2c2ccc(OC(C)C)c(OC)c2)cc1OC (stereo not drawn),-13%,-7%
CCCC(=O)N1CCN(c2nc3ccc(F)cc3s2)CC1,4%,-8%
COc1cccc(-c2noc(CN(C)S(=O)(=O)c3ccc(C)cc3)n2)c1,u,u
CCc1ccc(Nc2nc3ccccc3nc2NS(=O)(=O)c2ccccc2)cc1,-4%&-12%,-3%&-3%
Cc1ccc(OCc2cc(=O)n3oc(C)cc3n2)c(NC(=O)COc2cccc(C(F)(F)F)c2)c1,-1%,-1%
CCOc1ccc(CCNC(=O)c2ccc3c(Cl)c4c(nc3c2)CCCC4)cc1,-9%,-14%
CCCNc1c(NC(=O)COc2ccc(C)cc2)c(=O)oc2ccccc12,0%,40%[activator]
O=C(Nc1ccc2c(c1)CCC2)C1(c2ccc(F)cc2)CCC1,21%,23%
CC(Sc1ccc(F)cc1F)C(N)=O (stereo not drawn),-5%,5%
Cc1ccc(OCC(=O)Nc2ccc(-c3nc4ccc(C)cc4o3)cc2)cc1,56%&29%[activator],-6%&-4%
CCOc1ccc(NC(=O)c2cc(C)nc3ccc(C)cc23)cc1OCC,-7%,0%
# (continued)
SMILES,2A firefly,StopGo RLuc
CN1CCN(C(=O)Cn2ncc3c4ccccc4n(Cc4ccc(Cl)cc4)c3c2=O)CC1,-4%,-17%
CCCn1nc(C(=O)Nc2sc3c(c2C(N)=O)CCC3)c2ccccc2c1=O,16%,0%
CCOc1ccc(NC(=O)c2ccc(Cl)cc2)c2cccnc12,38%[activator],-6%
CCOC(=O)c1c(NC(C)=O)c2c3c(sc2n1Cc1nc(-c2ccccc2OCC)oc1C)CCCC3,0%,0%
COc1ccc(OC)c(NC(=O)c2cc(=O)[nH]c3ccccc23)c1,6%,-4%
S=C(NCCc1ccccc1)Nc1cccc(Cl)c1,-1%,-7%
NC[C@H]1O[C@H](O[C@H]2[C@H](O)[C@@H](O[C@H]3O[C@H](CO)[C@@H](O)[C@H](N)[C@H]3O)[C@H](N)C[C@@H]2N)[C@H](N)[C@@H](O)[C@@H]1O,-18%[5.23 µM],-8%[23.8 µM]
Cc1ccccc1-c1nc(CSc2nc(C)c(CCO)c(=O)[nH]2)c(C)o1,5%,6%
CCOC(=O)C1CCCN(C(=O)CN2C(=O)COc3ccc(S(=O)(=O)N4CCCCC4)cc32)C1 (stereo not drawn),2%,-2%
CCN(CC)c1ccc(NS(=O)(=O)c2ccc(-c3cnc(C4CC4)o3)cc2)c(C)c1,-14%,u
Cc1cc(C)n(-c2nc3c(c(=O)n(Cc4ccc(F)cc4)c(=O)n3C)n2CCC(C)C)n1,-2%,-5%
COc1ccc(Cn2ccnc2SCC(=O)Nc2cc(C(F)(F)F)ccc2Cl)cc1,-11%,-2%
O=C(NCCc1cccc2ccccc12)c1ccc2ccccc2n1,148%[activator],21%
Cc1c(C)n(Cc2ccccc2)c2ncnc(NCc3ccco3)c12,20%,36%[activator]
O=C(Cc1n[nH]c(=O)c2ccccc12)NCc1ccc(OC(F)F)cc1,22%,2%
COc1ccc(NC(=O)Cn2c(=O)n(CCCC(=O)NCCc3ccc(C)cc3)c(=O)c3ccccc32)cc1Cl,-13%,-3%
COc1ccc(NC(=O)CSC2=Nc3ccccc3C3=NC(CC(=O)NCCc4ccccc4)C(=O)N23)cc1 (stereo not drawn),86%[activator],0%
Fc1ccccc1N1CCN(Cc2ncc(-c3ccc(Cl)cc3)o2)CC1,-7%,-19%
CCCn1c(N2CCN(C(=O)c3cccc(OC)c3)CC2)nc2sc3c(c2c1=O)CCCC3,7%,3%
CCOC(=O)c1cnc2ccc(OC)cc2c1NCCc1ccc(OC)c(OC)c1,11%,2%
CCn1c(SCC(=O)Nc2cc(Cl)ccc2OC)nc2c([nH]c3ccccc32)c1=O,17%,4%
O=S(=O)(c1ccccc1Br)N(Cc1cn(Cc2ccccc2)nn1)C1CC1,-4%,99%[activator]
Brc1cccc(-c2noc(/C=C/c3ccccc3)n2)c1,113%[activator],14%
Cc1ccc(N(CC(=O)NCC2CCCO2)S(=O)(=O)c2ccc(C)cc2)cc1 (stereo not drawn),-12%,29%
O=C(N[C@@H]1C[C@H]2CC[C@@H]1C2)c1cccc(Cl)c1,162%[activator],53%[activator]
Cc1ccc(COC(=O)C(C)NC(=O)c2ccccc2)cc1 (stereo not drawn),-2%,2%
CCOC(=O)c1scc(-c2ccc(C)cc2)c1S(=O)(=O)Nc1cc(OC)ccc1OC,-8%,25%
CCOC(=O)C(=CNC(C)=O)C(=O)OCC,u,u
CNC(=O)C1CCC(Cn2c(=O)c3sccc3n(CC(=O)NCc3ccccc3)c2=O)CC1 (stereo not drawn),11%,5%

# One compound at a time, from the list above.
# `CCOC(=O)c1cnc2ccc(OC)cc2c1NCCc1ccc(OC)c(OC)c1` is listed as 2A firefly: 11%; StopGo RLuc: 2%
# `O=C(N[C@@H]1C[C@H]2CC[C@@H]1C2)c1cccc(Cl)c1` is listed as 2A firefly: 162%[activator]; StopGo RLuc: 53%[activator]

# High-throughput results deposited in PubChem BioAssay by National Center for Advancing Translational Sciences (NCATS).
